# E coli growth: E. coli growth inhibition, primary screen, OD600; Escherichia coli growth, 23 h; active compounds read low; OD600 absorbance (concentration not given with the values); hit rate 0.21% among 330,000;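 active = OD600 absorbance below the run mean of sample wells minus 3.6 SD, in any replicate, cut at about 0.56 in these data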;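 note: stock transfer was 300 nL into about 60 µL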
# Bfl-1 A1 inh: caspase 3/7 activation in MEF A1-2A-BIM cells, primary screen, A1 inhibitor project, cell-based, luminescence, HTS; hit rate 0.066% among 330,000; caspase activation, % (test concentration not listed); Caspase-Glo 3/7 luminescence, 3 h; percent of clofoctol response, vehicle zero;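 active = over half of replicate activation scores above 10%, or exactly half above 10 with the replicate mean above 10; inconclusive = replicate mean below 10 yet half the replicates above 10; inactive = over half of replicates below 10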;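 note: wells of about 30 µL received 50 nL stock; many hits fall short of the cut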
# Vif A3G: inhibitors of Vif binding to APOBEC3G peptide, primary screen, biochemical, TR-FRET, GST-Vif 1-94, biotin-A3G peptide, dose response retest (AID 1117319); TR-FRET GST-Vif / biotin-A3G peptide binding; higher % means a stronger effect; test concentration not given here; strong numbers were not always called active; inhibition, %, or IC50 in µM where a hit was titrated; hit rate 0.57% among 260,000;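 active = above the screen mean plus three standard deviations and confirmed in dose response; inconclusive = results disagree or hit not tested in dose response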;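 note: Vif residues 1-94 fused to GST binding biotinylated APOBEC3G peptide 110-148; 0% = full assay without inhibitor and 100% = GST in place of GST-Vif; retest series ran down from 100 µM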
# HNF4A DNA FP: change in binding of human HNF4A to DNA, primary screen, biochemical, fluorescence polarization, FITC-DNA | 1 h | hit rate 0.3% among 360,000 | Hepatocyte nuclear factor 4-alpha (Homo sapiens), P41235 | activity change, % at 10 µM; in the data active = activity change above about 30%, passing the limit was not always enough;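 note: controls were the assay level and a saturating level of protein; the project sought stronger binding though the title names inhibitors; some compounds called inactive have numbers as strong as hits; positive values seem to mean higher polarization but the record does not say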
# Target sequence (P41235 whole entry, looked up): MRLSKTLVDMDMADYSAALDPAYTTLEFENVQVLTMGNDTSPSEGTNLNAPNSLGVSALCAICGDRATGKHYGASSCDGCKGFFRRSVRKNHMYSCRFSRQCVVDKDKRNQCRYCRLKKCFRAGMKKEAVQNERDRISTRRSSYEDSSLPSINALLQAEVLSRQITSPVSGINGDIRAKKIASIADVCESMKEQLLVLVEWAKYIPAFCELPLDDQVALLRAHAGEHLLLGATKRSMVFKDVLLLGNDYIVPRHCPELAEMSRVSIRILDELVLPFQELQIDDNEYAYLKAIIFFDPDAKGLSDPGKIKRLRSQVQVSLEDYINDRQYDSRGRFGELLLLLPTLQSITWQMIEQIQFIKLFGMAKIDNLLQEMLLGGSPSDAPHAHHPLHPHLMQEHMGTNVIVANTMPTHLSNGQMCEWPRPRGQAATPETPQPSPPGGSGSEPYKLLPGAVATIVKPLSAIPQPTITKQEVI
# B2AR ag: beta2AR agonists driving receptor internalization, primary screen, cell-based, FAP fluorogen, flow cytometry | Am2.2-beta2AR cells; reference of the scale not given here | Beta-2 adrenergic receptor (Homo sapiens), P07550 | AID 504454, 2011 | response, % (test concentration not listed) | hit rate 0.43% among 340,000;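 active = response above a set limit, near 3 SD of response in nonfluorescent compounds, cut at about 42% in these data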;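 note: stock transfer was 100 nL into about 11 µL; a reference agonist was the positive control; negative values mostly stem from fluorescent compounds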
# UCH37 DUB inh: inhibitors of human UCH37 deubiquitinase, primary screen, biochemical, Ub-AMC cleavage, fluorescence; purified proteasome/UCH37; inhibition, % (no concentration beside the values); hit rate 0.33% among 330,000; AID 588478, 2011;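 active = mean of two replicates above 20%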;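 note: 0% = compound-free wells with enzyme and 100% = wells lacking proteasome; stock transfer was 100 nL into about 20 µL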
# Target sequence (Q9Y5K5 whole entry, looked up): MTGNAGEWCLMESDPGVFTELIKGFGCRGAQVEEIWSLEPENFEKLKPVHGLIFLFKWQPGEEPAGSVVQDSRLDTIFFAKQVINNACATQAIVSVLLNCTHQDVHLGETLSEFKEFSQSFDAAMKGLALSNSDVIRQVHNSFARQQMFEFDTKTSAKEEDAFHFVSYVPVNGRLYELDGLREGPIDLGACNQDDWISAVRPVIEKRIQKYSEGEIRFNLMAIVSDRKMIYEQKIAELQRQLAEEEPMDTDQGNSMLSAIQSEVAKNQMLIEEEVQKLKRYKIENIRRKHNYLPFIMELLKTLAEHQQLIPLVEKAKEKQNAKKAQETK
#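 System: Proteasome-associated human UCH37 deubiquitinase; Input: 0.15 nM proteasome in added enzyme buffer; Also added: Ub-AMC substrate from 1 µM stock; Incubation: 30 min compound-proteasome preincubation then 25 min substrate reaction, room temperature; Detection: fluorescence, ex 355 nm, em 460 nm; Read-out: % inhibition of Ub-AMC cleavage fluorescence; Benchmarks: no-proteasome and no-compound wells.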
# LANA-H2A inh: blockers of LANA interaction with H2A/H2B – biochemical, FP readout, HTS, primary screen. cell-free LANA-H2A/H2B peptide, fluorescence polarization. inhibition, % (no concentration beside the values). hit rate 0.6% among 320,000; in the data active = inhibition mostly above about 10%, no sharp cut-off; inactive = mostly below about 6.7%;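 note: stock transfer was 7.5 nL into about 10 µL; 0% = median of vehicle wells and 100% = median of positive control wells; one replicate is shown; the record names a cut of 25% in any replicate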
# * hit, by the source's call; u = inconclusive; x = not tested or not shown; & = joins results of further samples.
# Screens in order: Vif A3G	Bfl-1 A1 inh	LANA-H2A inh	E coli growth	HNF4A DNA FP	B2AR ag	UCH37 DUB inh
1. Cc1occc1C(=O)Nc1cccc(/C=C/C(=O)O)c1
→ x	-12.0	-0.9	0.735	-4.6	1.9	4.1
2. CN(CC(=O)Nc1ccccc1Cl)C(=O)Cn1nnc(-c2ccc(F)cc2)n1
→ x	0.4	4.2	0.708	-1.1	-6.0	2.3
3. O=C1NC(c2ccccc2)=NC1(NS(=O)(=O)c1ccc(Cl)cc1)C(F)(F)F (stereo not drawn)
→ 28.9%	-0.2	2.0	0.739	-1.6	-3.8	3.0
4. COc1ccc(NS(=O)(=O)c2ccc(NC(C)=O)cc2)c(OC)c1
→ 5.1%	-0.3	-2.3	0.67	-1.7	-3.7	0.2
5. N#CCCCn1c(-c2ccccc2)noc1=O
→ 2.0%	0.7	0.9	0.719	0.3	0.1	1.7
6. CCCC(=O)n1nc(-c2ccc(C)cc2)nc1NCc1ccco1
→ -2.7%	-0.4	-1.0	0.692	1.6	-0.4	5.2
7. Cc1cc(C)cc(N(CC(=O)NC(C)C)C(=O)CCC(=O)Nc2ccccn2)c1
→ x	0.1	-0.6	0.681	0.9	-2.5	-2.7
8. CCOC(=O)N1CCN(S(=O)(=O)c2cc3c(cc2C)NC(=O)CO3)CC1
→ -2.1%	1.4	-4.2	0.656	-0.6	-2.6	0.9
9. COc1cccc(C2c3[nH]c4ccccc4c3C[C@H]3C(=O)N(c4ccccc4C(=O)N4CCC(C(=O)O)CC4)C(=O)N23)c1 (stereo partly drawn)
→ x	-0.3	9.4	0.679	0.9	-1.2	1.8
10. Cc1ccc(C(=O)N/C(N)=N/c2nc3ccccc3o2)cc1
→ 0.2%	0.0	1.9	x	0.7	-4.8	-0.6
11. O=C1NN=C(c2ccc(Cl)cc2)CC1c1cccc(Br)c1 (stereo not drawn)
→ 2.6%	-0.2	-3.6	0.676	2.0	-1.7	2.0
12. COc1ccc(NC(=O)CN(C)CC(=O)Nc2cccc(C(C)=O)c2)cc1
→ 5.9%	0.8	3.0	0.654	-1.0	-0.3	5.1
13. COc1ccc(C(=O)Nc2cccc(S(=O)(=O)NC3=NCCCCC3)c2)cc1
→ x	0.1	14.3	0.677	-6.9	3.5	3.1
14. O=C(O)C1CCCCN1S(=O)(=O)c1cccc2nsnc12 (stereo not drawn)
→ x	-0.4	x	0.706	-0.5	4.0	2.4
15. CCCCCCC12CCC(C(=O)O)(CC1)CC2
→ 0.0%	-0.1	-5.9	x	x	x	x
16. C/C(=C\C(=O)c1ccccc1)NNC(=O)c1ccc(Cl)cc1
→ 1.9%	-0.3	1.1	0.683	-3.8	-1.4	4.5
17. O=C(C1=C(O)C(=O)N(CCCn2ccnc2)C1c1cccc(Br)c1)c1ccco1 (stereo not drawn)
→ x	0.1	10.4	0.698	-0.7	-4.9	11.4
18. Brc1ccc(CSc2ncn[nH]2)cc1
→ 3.5%	-0.8	-5.9	0.67	0.7	-1.8	-0.4
19. COCc1cc(C)nc(OCC(=O)N/N=C/c2ccc(O)cc2)c1C#N
→ x	0.4	1.2	x	-3.2	9.9	x
20. COc1ccc(NC(=O)Cc2nnc(SCC(=O)NC3CCCCC3C)n2C)cc1 (stereo not drawn)
→ x	0.2	0.1	0.648	-0.7	-0.3	-0.4
21. CN(C(=O)c1cccc(NC(=O)Cc2ccc(NC(=O)C3CCCN(C(=O)CCc4ccccc4)C3)cc2)c1)C1CCCC1 (stereo not drawn)
→ -1.9%	x	x	x	2.8	4.4	x
22. COc1ccc(NS(=O)(=O)c2cccc(C(=O)NCC(c3ccc(OC)cc3)N3CCCC3)c2)cc1 (stereo not drawn)
→ 4.3%	-0.8	-0.8	0.697	2.5	9.2	-1.3
23. Cc1nc(SCc2ccc(F)cc2)c([N+](=O)[O-])[nH]1
→ -0.1%	-1.7	6.9	0.681	3.6	8.2	6.1
24. O=C(c1ccc(NS(=O)(=O)c2ccc3[nH]c(=O)[nH]c3c2)cc1)N1CCCC(C(F)(F)F)C1 (stereo not drawn)
→ -2.0%	1.3	1.6	0.705	-0.6	-0.8	6.3
25. CCCn1nnc(NC(=O)c2ccc(Cl)cc2Cl)n1
→ -2.6%	-4.8	0.9	0.741	0.3	-4.8	0.6
26. Cc1c(C(=O)N2CCN(Cc3ccccc3)CC2)oc2c1C(=O)CC(C)(C)C2
→ x	0.4	1.5	0.659	0.6	-5.7	5.7
27. CC(=O)Cc1nsc(NC(=O)c2ccc(-c3ccccc3Cl)o2)n1
→ -7.4%	-3.7	1.4	0.635	4.9	5.5	-1.6
28. COc1ccc(OC)c(C2C(C(=O)c3ccco3)=C(O)C(=O)N2Cc2cccnc2)c1 (stereo not drawn)
→ x	0.2	-1.2	0.647	-1.8	2.3	13.6
29. O=S1(=O)c2ccc(Br)cc2N2CCC[C@@H]2CN1Cc1ccccc1
→ x	x	x	0.721	-1.1	-11.5	3.5
30. CCCCOc1ccc(CN=C(N)N)cc1Cl
→ -10.0%	0.8	-3.5	0.587	2.0	-8.6	4.1
31. O=C(NCc1ccccc1)c1ccc(-c2ccc(F)cc2)o1
→ -0.1%	0.0	-8.6	0.645	1.4	8.7	2.3
32. O=C(c1ccccc1)c1cc2ccc(O)cc2oc1=O
→ 1.3%	-7.2	41.4*	0.703	-0.8	4.6	4.8
33. CCSc1nnc(NC(=O)c2cc(-c3ccccc3O)n[nH]2)s1
→ 9.0%	-5.2	2.5	0.678	-0.1	-10.3	0.4
34. NNC(=O)C1CCCN1S(=O)(=O)c1ccc(Cl)cc1 (stereo not drawn)
→ x	0.4	1.9	0.661	2.3	-2.4	-0.7
35. CC12CCC(=O)N1C(C(=O)Nc1cc(Cl)ccc1N1CCOCC1)CS2 (stereo not drawn)
→ x	-0.6	-4.8	0.672	3.9	-2.9	0.6
36. O=C(O)c1c(C(=O)O)c(-c2ccc(Br)cc2)n2c1CSC2
→ -8.0%	-0.2	-0.4	x	1.6	-6.4	x
37. NS(=O)(=O)c1ccc(NC(=O)COC(=O)CNC(=O)C23CC4CC(CC(C4)C2)C3)cc1
→ 0.1%	0.4	-0.5	0.645	3.9	2.3	4.2
38. CS(=O)CSc1nc2c(cc1C#N)CCCC2 (stereo not drawn)
→ 6.6%	-0.3	-3.5	0.657	7.3	-14.9	0.3
39. CC(CN1CCN(C)CC1)OC(=O)c1ccc(Cl)cc1Cl (stereo not drawn)
→ u	2.3	-4.6	0.631	0.1	10.7	3.5
40. CCCCc1nnc(NC(=O)CSCc2cc(=O)n3ccsc3n2)s1
→ 3.6%	-0.3	1.6	0.712	1.1	0.1	4.4
41. CCc1c(C(=O)Nc2nnc(C3CC3)s2)csc1C
→ u	0.0	0.9	0.703	3.6	8.2	2.2
42. CCO[C@H]1OC(C(=O)O)=C[C@@H](C2CC2)[C@@H]1CCCO
→ -5.5%	0.6	-6.0	x	x	x	2.4
43. CCN(CC)c1nc(N)nc(NS(=O)(=O)c2ccc(Cl)cc2)n1
→ 10.9%	0.9	2.4	0.662	-0.9	2.7	-0.2
44. COc1ccc(N2C(=O)c3ccc(C(=O)Nc4ccc(NC(C)=O)cc4)cc3C2=O)cc1
→ -8.7%	0.9	-1.7	0.676	-1.0	-2.5	2.9
45. NNC(=O)c1ccc(CSc2nc3ccccc3[nH]2)cc1
→ u	-0.8	-0.8	0.639	5.7	3.4	1.6
46. COc1cccc(N2CN(CCc3ccccc3)CNC2=S)c1
→ -0.8%	0.1	1.7	0.674	1.2	1.5	0.4
47. O=C(Cn1ccc(C(F)(F)F)n1)N/N=C/c1cccs1
→ 12.3%	-0.4	-1.3	x	0.5	-4.6	x
48. Nn1c(SCc2cccc(C(F)(F)F)c2)nnc1-c1ccco1
→ 5.5%	0.0	-0.7	0.643	2.6	-13.2	1.7
49. O=C(Cc1cccc(NC(=O)C2CCCN(C(=O)CCc3ccccc3)C2)c1)Nc1cccc(C(=O)N2CCOCC2)c1 (stereo not drawn)
→ x	x	x	0.671	-2.1	-3.8	2.1
50. CC[n+]1c(C)n(-c2ccccc2)c2ccc(NC(C)=O)cc21
→ 5.8%	-1.3	7.1	0.714	4.0	-3.3	-16.2

# More results:
# Screens in order: Vif A3G	Bfl-1 A1 inh	LANA-H2A inh	E coli growth	HNF4A DNA FP	B2AR ag	UCH37 DUB inh
51. Cc1oncc1C(=S)Nc1ccccc1
→ 12.1%	-1.9	-5.6	0.672	4.1	-0.5	2.5
52. Cc1cccc(OCCn2ccnc2)c1
→ x	1.0	-4.6	0.71	-2.7	4.5	-0.6
53. CN(C)C(=O)COc1ccc2c(-c3ccccc3)cc(=O)oc2c1
→ 3.1%	0.9	-3.8	0.676	3.7	-9.9	0.8
54. COc1ccccc1N1CCN(C(c2ccc(F)cc2)c2nnnn2C(C)C)CC1 (stereo not drawn)
→ 17.8%	x	x	0.699	-0.5	-0.7	4.6
55. CCOC(=O)Cc1csc(NC(=O)c2cccc(OC)c2)n1
→ -0.6%	-3.9	7.7	0.706	0.9	12.2	4.9
56. O=C(O)C1C2CCC(C2)C1C(=O)NCCc1ccccc1 (stereo not drawn)
→ x	u	9.3	0.681	-3.2	-2.2	2.5
57. Cc1ccc(CCNC(=O)CCCn2nc(C)c3c(C)n(-c4ccc(C)cc4)nc3c2=O)cc1
→ x	0.2	-6.5	0.702	3.1	-0.3	2.2
58. C=CCn1c(Oc2cccc(C)c2)nc2c1c(=O)n(C)c(=O)n2C
→ -2.7%	0.8	0.5	0.633	1.3	6.2	0.4
59. C=CC[C@H](CC(=O)N(CCO)Cc1ccccc1)C(=O)N[C@H](COC(=O)[C@@H](CC=C)CC(=O)OC(C)(C)C)Cc1c[nH]c2ccccc12
→ x	1.4	-1.2	x	2.2	1.8	0.1
60. c1cnc(NCCNc2ncccn2)nc1
→ 1.2%	0.1	4.6	0.688	3.9	0.9	5.2
61. CC(=O)N1CN(S(=O)(=O)c2ccc(C)cc2)CC1C (stereo not drawn)
→ u	0.3	2.1	0.707	0.0	3.6	6.0
62. O=[N+]([O-])c1cccc2ccc(/C=C/c3ccc(F)cc3)nc12
→ 3.4%	0.6	-1.1	0.637	-1.8	-4.2	4.5
63. O=C(NC1CCCCC1)c1cc(C2CC2)on1
→ -5.3%	-0.8	1.6	0.715	3.1	-12.1	-2.9
64. COc1cccc(NC(=O)CN(C)C(=O)/C=C/c2cn(-c3ccccc3)nc2-c2ccc(C)cc2)c1
→ 6.6%	-0.8	-3.9	0.672	-1.5	16.8	-2.7
65. CC(C)CCN1CCN(Cc2ccc(C#CCCO)cc2)CC1CCO (stereo not drawn)
→ 4.8%	-0.5	1.7	0.67	1.2	-2.7	-1.8
66. Cc1ccccc1-n1c(SCC(=O)N2CCN(c3ccccc3)CC2)nnc1-c1ccncc1
→ -7.8%&-10.0%	-0.6	5.2	0.734	3.1	-1.7	2.3
67. CCN(C(=O)Cn1cnc2c1c(=O)n(C)c(=O)n2C)C1CCS(=O)(=O)C1 (stereo not drawn)
→ -12.1%	-0.4	-2.2	0.678	-2.2	2.8	4.6
68. COc1ccccc1CNC(=O)c1cc(-c2cccnc2)nc2ccccc12
→ 7.8%	0.4	-4.2	0.686	0.0	-3.6	-0.1
69. CCCCC(CCC(=O)Nc1ccccc1C(=O)OCC)C(=O)O (stereo not drawn)
→ -10.4%&-7.0%	-0.2	-3.6	0.685	2.4	0.5	3.4
70. O=C(O)c1ccc(NS(=O)(=O)c2cccc(C(=O)Nc3cccc(C(=O)O)c3)c2)cc1
→ -1.6%	-1.5	5.6	0.671	1.1	1.9	-0.3
